RVFV N-RNA FP = inhibitors of RVFV nucleoprotein–RNA binding, primary screen, biochemical, fluorescence polarization. P21700. RVFV N-RNA binding; active compounds read low. % bound, % (concentration not given with the values). actives 0.1% (n = 20,000). AID 651828, 2012;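 active means between 0 and 58% in either replicate with normal brightness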;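 further: 100 nL library stock added to about 12 µL; 100% = protein and probe without compound and 0% = probe alone; numbers are from one replicate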
Target sequence (P21700 whole entry, looked up): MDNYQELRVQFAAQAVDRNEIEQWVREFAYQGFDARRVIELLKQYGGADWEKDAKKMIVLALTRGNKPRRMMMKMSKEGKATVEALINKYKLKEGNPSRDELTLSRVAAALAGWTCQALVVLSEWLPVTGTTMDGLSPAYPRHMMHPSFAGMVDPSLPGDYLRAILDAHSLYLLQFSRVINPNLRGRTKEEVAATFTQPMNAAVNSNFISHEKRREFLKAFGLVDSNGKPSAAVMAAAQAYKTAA
Numbers without * were called inactive; & = joins results of further samples. Some of the compounds tested. The share of hits here may be higher or lower than overall.

SMILES	RVFV N-RNA FP
Cc1cc(NC(=O)Nc2ccc(Cl)cc2)n(C(C)(C)C)n1	89
CC(=O)Nc1ccc(N/C=C/C(=O)C(C)(C)C)cc1	91
Cc1cn2c(nc3c2c(=O)n(C)c(=O)n3C)o1	91
CS(=O)(=O)c1ccc(-c2cccc(NC(=O)c3ccc4c(c3)OCO4)c2)nn1	98
CCCCNC(=O)N1CCN(C(c2ccccc2)c2ccccc2)CC1	91
CN(C)c1ccc(CN2CCCC2)cc1	101
O=[N+]([O-])/C=C/c1ccc2c(c1)OCO2	91
CCSc1nc(=O)n(Cc2cccnc2)c2c1CCC2	96
Nc1noc2c1C(C1CC=CCC1)C1=C2CCCC1=O (configuration not stated)	89
Cc1ccc(S(=O)(=O)C2(S(=O)(=O)c3ccc(C)cc3)CCCC2)cc1	92
NC(=O)c1ncn([C@@H]2O[C@H](CO)[C@@H](O)[C@H]2O)n1	101&96
Nc1nccc(-c2c(-c3ccc(F)cc3)ncn2C2CCNCC2)n1	98
O=C1c2ccccc2NC(c2cccs2)N1CCCN1CCOCC1 (configuration not stated)	94
N#CC(c1ccccc1)c1ccccn1 (configuration not stated)	103
O=c1nc(N2CCCCC2)ccn1-c1nc(-c2ccccc2)oc1-c1ccccc1	103
O=C(OCc1nnc(-c2ccccc2)o1)C1c2ccccc2Oc2ccccc21	99
C/C(=N\N=C(N)N)c1cccs1	106
CCOC(=O)C1=C(Nc2ccc(OC)cc2)OCC1=O	92
Cc1onc(-c2ccccc2)c1C(=O)NC1C(=O)N2C1SC(C)(C)C2C(=O)O (configuration not stated)	99
CC(C(=O)NC1CCCCC1)N1C(=O)C2C3C=CC(C3)C2C1=O (configuration not stated)	110
COC(=O)C(NC(=O)NC1CCCCC1)C(C)C (configuration not stated)	100
CN1CCC(N2CCCCC2)CC1	100
CC(COc1ccccc1Cc1ccccc1)N1CCCCC1 (configuration not stated)	94
CC1(C)Cc2c(sc3nc(NCCCO)[nH]c(=O)c23)CO1	93
O=C(O)c1ccccc1NCN1C(=O)c2ccccc2C1=O	104
Cc1c(C(=O)Nc2nc3ccccc3s2)oc2c1C(O)CC(C)(C)C2 (configuration not stated)	99
Cc1cccc(C)c1NC1=NCCCS1	100&93
NNC(=S)NC1CC2CCC1C2 (configuration not stated)	92
Cc1c(N=CN2CCOCC2)c(=O)n(C)c(=O)n1C	105
S=C(NN=C1CCCCCC1)Nc1ccccc1	112
O=S(=O)(c1cccc2nonc12)N1CCC(n2cccc2)CC1	94
CCOC(=O)C1=C(c2ccccc2)N=c2s/c(=C\c3ccco3)c(=O)n2C1c1cccc(OC)c1 (configuration not stated)	92
N#CCC(=O)N/N=C/c1cc2ccccc2[nH]1	101
COC(=O)NNc1ncccc1C(F)(F)F	96
CCOC(=O)c1[nH]c2ccccc2c1NC(=O)c1ccc(N2C(=O)CCC2=O)cc1	96
N#Cc1ccc(NC(=O)CSc2nc3ccccc3[nH]2)cc1	96
Fc1ccc(Cn2c3ccccc3c3nn4cnnc4nc32)cc1	90
CC1(C)CC(=O)C(=CN2CCCCC2)C(=O)C1	88
O=c1/c(=C/C2=Cc3ccccc3OC2)sc2nc3ccccc3n12	115
C=CCSC1=N/C(=C\c2ccsc2)C(=O)S1	96
O=C(O)c1ccccc1C(=O)NCc1ccc(N2CCCC2=O)cc1	94
CN(C)S(=O)(=O)N1CCC(C(=O)O)(c2ccccc2)CC1	90
CNCCc1cnc(CCC(c2ccccc2)c2ccccc2)[nH]1	93
CS(=O)(=O)N1N=C(c2ccccc2)CC1c1ccccc1 (configuration not stated)	95
Cn1nccc1NC=C(C#N)C#N	86
C=CCNC(=O)c1ccc(OCC=C)cc1	91
CCn1ncc(Cl)c1C(=O)NCc1ccco1	99
Nc1nc2cc(Cl)ccc2n1CCCO	102
O=C1NCCCCC1NCC(O)c1ccccc1 (configuration not stated)	101
O=C(Nc1cccc(N2CCCC2)c1)C(F)(F)C(F)F	95

Continuation:
SMILES	RVFV N-RNA FP
CC1=C(C(=O)OC(C)(C)C)C(c2cccc(Cl)c2)NC(=O)N1 (configuration not stated)	92
Cc1cc(Br)cc(Br)c1OC(=O)c1ccco1	94
CC(C)c1cccc(C(C)C)c1N1C(=O)c2ccc(O)cc2C1=O	92
CCOC(=O)c1cc(-c2ccccc2)sc1NC(=S)Nn1cnnc1	94
COC(=O)CNC(=O)c1cc(-c2ccc3c(c2)OCO3)nc2c(C)c(Cl)ccc12	102
CC(=O)N/C(=C/c1ccccc1)C(=O)N1CCCCC1	95
C=C(C)c1cccc(C(C)(C)NC(=O)Nc2ccc(N3CCOCC3)cc2)c1	97
Oc1ccc(C=Nc2cccnc2)cc1	92
OCCN1CCN(c2ncnc3c2cnn3-c2ccc(Cl)c(Cl)c2)CC1	99
CN1CCC(N(C)C(=O)NC2CCCCC2)CC1	102
CCCC(=O)NNc1ncc(C(=O)OCC)c(C(F)(F)F)n1	95
CCCCCC(=O)NC1CCN(Cc2ccccc2)CC1	104
CCOc1ccc(/C=C/C(=O)NCC(C)C)cc1OCC	107
N=C(N)SCP(=O)(c1ccccc1)c1ccccc1	99
CC1CC2C3CCC4=CC(=O)C=CC4(C)[C@@]3(Cl)C(O)CC2(C)C1(O)C(=O)CO (some centres not stated)	99
C[C@]12CCC(=O)C=C1[C@@H]1C[C@@H]1C1C2CC[C@@]2(C)C1[C@@H]1C[C@@H]1[C@@]21CCC(=O)O1 (some centres not stated)	98
Cc1cc(SCc2ccc(C(F)(F)F)cc2)nc(=O)[nH]1	108
CCOC(=O)COc1ccc(S(=O)(=O)Nc2cccc(SC)c2)cc1	92
Cc1ccc(N(Cc2ccco2)S(=O)(=O)c2ccc(F)cc2)cc1	97
COc1ccc(NC(=O)C(C)N2C(=O)c3ccccc3S2(=O)=O)c(OC)c1 (configuration not stated)	102
N#C/C(=C/c1ccc(-c2ccc(C(=O)O)cc2)o1)c1ccc(Cl)cc1	98
CC1(C)NC(C)(C)/C(=N\O)C(=NO)/C1=N\O	94
CSc1nn(-c2ccccc2)cc1/C(N)=N/OC(=O)Nc1ccccc1	91
CC(C)(C)n1nc(Cc2cccc3ccccc23)c2c(N)ncnc21	91
NS(=O)(=O)c1ccc(CCNC(=S)NCc2ccco2)cc1	96
S=c1[nH]nc(-c2ccccc2)n1-c1ccccc1	91
O=c1[nH]c(-c2ccc(Br)cc2)nc2ccccc12	88
CN(C)/C=C1/C(=O)Nc2ccccc21	91
NCC(=O)CCC(=O)O	98
OCCN1CCN(CCc2ccccc2)CC1	93
N#CC(C#N)=Cc1cccn1S(=O)(=O)c1ccc(F)cc1F	88
c1ccc(N2CCN(c3ncnc4c3oc3ccccc34)CC2)cc1	92
CC(=O)NC(NC(C)=O)C(C)(C)Cc1ccccc1	105
CCSc1nnc2c(n1)OC(/C=C/c1ccco1)N(C(C)=O)c1ccccc1-2 (configuration not stated)	97
Cn1cc(SCC(=O)Nc2ccc(F)cc2)c2ccccc21	94
CCCCOc1cccc(C(=O)N2CCCCC2C)c1 (configuration not stated)	97
CSc1sc(C(=O)N/N=C/c2cccs2)c2c1C(O)CCC2 (configuration not stated)	99
CSC1=N/C(=C/c2cccnc2)C(=O)N1Cc1ccccc1	92
CC(=O)NC(C)(C)C1CC=C(C)/C(=N\O)C1 (configuration not stated)	93
NC(=O)Nc1cc(-c2ccccc2)sc1C(N)=O	101
CSc1nnc(NC(=O)c2cccc3ccccc23)s1	92
O=C(c1cccc(C(F)(F)F)c1)N1CCN(c2ccc(N3CCCCCC3)nn2)CC1	107
Cc1cccc(-c2noc(-c3ccccc3C(=O)NCc3cccnc3)n2)c1	98
COc1ccc2c(C)cc(=O)[nH]c2c1	97
OC1CCN(Cc2cccc3ccccc23)CC1	87
CC(C)NCC(O)Cn1c2c(c3ccccc31)CCc1c-2cnn1-c1ccccc1 (configuration not stated)	92
Cc1cc(F)ccc1S(=O)(=O)Nc1ccc2oc3c(c2c1)C(=O)CC(C)(C)C3	111
CS(=O)(=O)Nc1ccccc1C(=O)NCCN1CCOCC1	101
Cc1cc(C)cc(C(=O)N(C(C)C)C(C)C)c1	94
CC(C)Cn1cnc2c(c(-c3ccccc3)c(-c3ccccc3)n2Cc2ccco2)c1=N	96

(next part)
SMILES	RVFV N-RNA FP
CCCC(=O)N(Cc1ccccn1)c1nc2ccccc2s1	102
COc1ccc(C)cc1S(=O)(=O)NCC(c1ccco1)N1CCc2ccccc2C1 (configuration not stated)	96
Cc1nnsc1C(=O)N(C)c1ccccc1	99
CCN(CC)Cc1c(O)ccc2cc(-c3ccc(OC)c(OC)c3)c(=O)oc12	93
Cc1cc2cc(CCNS(=O)(=O)c3ccccc3)c(=O)[nH]c2cc1C	97
O=C(NCC(F)(F)C(F)F)c1ccncc1	98
Cc1ccc(C=C(C#N)C#N)o1	95
Cn1c(=O)c2cc3c(=O)n(C)c(=O)c3cc2c1=O	101
COc1ccc2c(=O)c(-c3cc4ccccc4o3)coc2c1	100
CC(C)(CO)NCC(=O)Nc1ccc(Cl)cn1	94
CC[C@H]1OC(=O)[C@H](C)C(=O)[C@H](C)[C@@H](O[C@@H]2O[C@H](C)C[C@H](N(C)C)[C@H]2O)[C@](C)(OC)C[C@@H](C)C(=O)[C@H](C)[C@@H]2N(CCCCn3cnc(-c4cccnc4)c3)C(=O)O[C@@]21C	104
c1ccc2nc(C3=NCCN3)ccc2c1	101
O=S1(=O)CC(NCc2ccccc2)C(Nc2ccccc2)C1 (configuration not stated)	92
NS(=O)(=O)c1ccc(-c2ccc(C=C3C(=O)NC(=S)NC3=O)o2)cc1	82
CC(C)(C)C(=O)CSc1nc2ccccc2n1S(=O)(=O)c1ccccc1	95
Cc1nc(-c2ccc(OC(F)F)cc2)cs1	100
COc1ccccc1C(c1c(C)[nH][nH]c1=O)C(C#N)C#N (configuration not stated)	96
CCn1c2ccccc2c2cc(/C=N/O)ccc21	95
COc1cc(C)c(S(N)(=O)=O)cc1C(C)C	95
CCn1c2ccccc2c2cc(CN3CCN(C)CC3)ccc21	93
NCCS(=O)(=O)c1ccc(C(F)(F)F)cn1	99
Cc1ccccc1/C=C/C1=NCCN1	99
COc1cc(OC)cc(C2NCCc3c2[nH]c2ccccc32)c1 (configuration not stated)	92
CC1CC(C)CN(S(=O)(=O)c2ccc(C(=O)NN3CCOCC3)cc2)C1 (configuration not stated)	95
c1cncc(CSc2nnc3ccc(-c4ccncc4)nn23)c1	94
CSc1nn(-c2ccccc2)cc1C(=O)N1CCOCC1	93
O=C(CC(NCc1cccnc1)C(=O)O)NN(c1ccccc1)c1ccccc1 (configuration not stated)	94
N[C@@H]1CCCC[C@H]1N.O=C(O)C(=O)O.[Pt]	95
CCCC(C)C(=O)Nc1ccc(Cl)cn1 (configuration not stated)	104
Cc1ccc(-c2nn3c(CC#N)nnc3c3ccccc23)cc1	98
Oc1ccc(-c2nnc(-c3ccc(O)cc3)nn2)cc1	96
CCc1c(C(=O)Nc2ncn(Cc3cccc(C)c3)n2)csc1C	89
OCc1ccc(OCCOc2cccc3cccnc23)cc1	97
CC(CN1CCCCC1)NC(=O)c1cccs1 (configuration not stated)	98
CCOCCC(=O)Nc1ccccc1Sc1ccccc1	96
CC(C)C(NS(=O)(=O)c1ccccc1)C(=O)Nc1ccccc1 (configuration not stated)	96
Cc1ccc(C2=NN=C(NC(=O)CSc3nnc(C)s3)SC2)cc1	92
CCCNS(=O)(=O)c1cc2c3c(c1)C(C)C(=O)N3CCC2 (configuration not stated)	99
CCCc1nn(-c2ccccc2)c2c1C(c1ccc(OC)cc1)C(C#N)=C(N)O2 (configuration not stated)	94
CCOC(=O)c1cc(CSc2n[nH]c(=O)n2-c2ccccc2)on1	98
Cc1c(C)c(C)c(C#CCO)c(C)c1C	101
CC(C)=CC(=O)Nc1ccc2c(c1)OCCO2	94
CCN1C(=O)S/C(=C/c2cc(Br)c(OCC(=O)O)c(OC)c2)C1=O	99
CSc1nc(C(=O)O)cc(=O)[nH]1	104

In the list so far, these have an aryl thioether with sulfur outside any ring.
SMILES	RVFV N-RNA FP
CCSc1nc(=O)n(Cc2cccnc2)c2c1CCC2	96
N#Cc1ccc(NC(=O)CSc2nc3ccccc3[nH]2)cc1	96
Cc1cc(SCc2ccc(C(F)(F)F)cc2)nc(=O)[nH]1	108
CCOC(=O)COc1ccc(S(=O)(=O)Nc2cccc(SC)c2)cc1	92
CSc1nn(-c2ccccc2)cc1/C(N)=N/OC(=O)Nc1ccccc1	91
CCSc1nnc2c(n1)OC(/C=C/c1ccco1)N(C(C)=O)c1ccccc1-2 (configuration not stated)	97
Cn1cc(SCC(=O)Nc2ccc(F)cc2)c2ccccc21	94
CSc1sc(C(=O)N/N=C/c2cccs2)c2c1C(O)CCC2 (configuration not stated)	99
CSc1nnc(NC(=O)c2cccc3ccccc23)s1	92
CC(C)(C)C(=O)CSc1nc2ccccc2n1S(=O)(=O)c1ccccc1	95
c1cncc(CSc2nnc3ccc(-c4ccncc4)nn23)c1	94
CSc1nn(-c2ccccc2)cc1C(=O)N1CCOCC1	93
CCOCCC(=O)Nc1ccccc1Sc1ccccc1	96
Cc1ccc(C2=NN=C(NC(=O)CSc3nnc(C)s3)SC2)cc1	92
CCOC(=O)c1cc(CSc2n[nH]c(=O)n2-c2ccccc2)on1	98
CSc1nc(C(=O)O)cc(=O)[nH]1	104

Screens: PubChem BioAssay, ICCB-Longwood Screening Facility, Harvard Medical School
